High-throughput results deposited in PubChem BioAssay by National Center for Advancing Translational Sciences (NCATS).
hNpr1 antagonist – blocks ANP-stimulated signaling of human Npr1 receptor; P16066; HEK293 hNpr1 GloSensor cGMP, ANP-stimulated luminescence; Potency, µM (highest dose often 46.3 µM), inactives show top-dose activity change, negative = inhibition, hits mostly inhibitors; hit rate 1.6% among 76,000; AID 1347048; active = well fitted inhibition curve with a large enough effect; inconclusive = small, poorly fitted or top-dose-only effect; inactive = no such curve, though single readings can be large or run the other way;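 note: nearly all actives have a fitted effect of over 60% in size; nearly all hits also lower the signal before the agonist is added; a reference antagonist and vehicle were the controls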
Target sequence (P16066 whole entry, looked up): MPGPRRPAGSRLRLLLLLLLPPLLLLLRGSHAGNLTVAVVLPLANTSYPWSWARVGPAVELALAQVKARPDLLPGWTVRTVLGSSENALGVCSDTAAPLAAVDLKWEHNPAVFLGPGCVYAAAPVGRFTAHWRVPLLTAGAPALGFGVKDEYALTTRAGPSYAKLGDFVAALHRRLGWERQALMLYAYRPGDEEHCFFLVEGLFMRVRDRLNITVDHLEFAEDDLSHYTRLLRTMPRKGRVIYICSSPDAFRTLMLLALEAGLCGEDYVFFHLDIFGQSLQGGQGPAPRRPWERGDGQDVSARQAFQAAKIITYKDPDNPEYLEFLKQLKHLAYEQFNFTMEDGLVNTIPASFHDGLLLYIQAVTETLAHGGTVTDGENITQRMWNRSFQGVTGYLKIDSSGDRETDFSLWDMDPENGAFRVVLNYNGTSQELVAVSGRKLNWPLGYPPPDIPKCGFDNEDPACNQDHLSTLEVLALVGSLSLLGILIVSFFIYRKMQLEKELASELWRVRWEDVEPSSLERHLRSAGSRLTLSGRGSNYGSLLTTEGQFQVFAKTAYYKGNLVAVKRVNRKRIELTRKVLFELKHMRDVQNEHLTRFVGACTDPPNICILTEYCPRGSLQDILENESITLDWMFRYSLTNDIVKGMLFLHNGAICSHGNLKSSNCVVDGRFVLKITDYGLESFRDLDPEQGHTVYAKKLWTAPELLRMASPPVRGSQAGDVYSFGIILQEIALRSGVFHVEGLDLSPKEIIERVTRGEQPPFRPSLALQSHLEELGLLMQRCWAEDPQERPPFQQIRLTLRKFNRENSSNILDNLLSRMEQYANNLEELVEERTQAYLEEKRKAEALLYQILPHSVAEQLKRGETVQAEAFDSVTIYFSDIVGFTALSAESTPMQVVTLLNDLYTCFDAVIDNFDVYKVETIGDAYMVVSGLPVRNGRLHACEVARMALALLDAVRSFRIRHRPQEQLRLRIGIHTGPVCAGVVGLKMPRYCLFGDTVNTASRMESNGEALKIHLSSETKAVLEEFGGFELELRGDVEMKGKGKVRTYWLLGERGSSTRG
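Compound pre-incubated 30 min at room temperature on GloSensor-loaded HEK293 cells stably carrying hNpr1 and the pGS-40F cGMP biosensor. Stimulation uses hNppA at 0.1 nM final; luminescence is taken at baseline and 20 min post-agonist.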
Starred values were filed as active, the others as inactive; ? = inconclusive; [ ] = dose if it differs, or a comment. % is set by controls: 0 for no effect and ±100 for the full control effect; potency is the fitted concentration of half-maximal effect.

mol	hNpr1 antagonist
COCC(=O)N1CCC(O)(c2csc(CN3CCc4ccccc4C3)n2)CC1	1%[70.6 µM]
O=C(c1ccnc(CC2CC(=O)N(c3ccccc3)C2)c1)N1CCCCC1 (stereo unspecified)	7%
Cc1nn2c(c1-c1ccnn1C(C)C)N(Cc1cccc(C#N)c1)CCC2	?
COc1cccc(-c2nc3cnccn3c2NCCC(=O)Nc2ccc(F)cc2C)c1	-8%
Cc1ccc(S(N)(=O)=O)cc1C(=O)N1CCCn2nc(C(C)O)cc2C1 (stereo unspecified)	0%
COc1cccc(NC(=O)CN2C(=O)NC3(CCC(C)CC3)C2=O)c1 (stereo unspecified)	2%
COc1ccc(OC)c(NC(=O)Cn2c(=O)c(-c3noc(C)n3)c3n(c2=O)CCCC3)c1	-2%
COCCNC(=O)[C@H]1C[C@H](Oc2ccccc2)CN1C(=O)c1cccs1	2%

(next part)
mol	hNpr1 antagonist
Cc1ccc(C(=O)N2CCN(C3CCN(CCC(C)C)C3=O)CC2)cc1 (stereo unspecified)	5%
O=C1NCCCc2[nH]c(-c3nc(-c4ccncc4)n[nH]3)nc21	6%
C[C@@H](c1ccccc1)N1C(=O)[C@@H]2CN(C(=O)CSc3ccncc3)CCN2C1=O	-4%[70.6 µM]
COc1ccccc1C(=O)N1CCC2(CC1)CC(OC)CCO2 (stereo unspecified)	12%
O=C(Cn1ccn2nc3c(c2c1=O)CCCCC3)NCc1ccccc1Cl	9%
Cc1ccc(C)c(-c2cc3c(=O)n(CCNC(=O)c4ccc5ccccc5n4)ccn3n2)c1	-18%
O=C(NCc1cccnc1)[C@@H]1C[C@@H](O)CN1C1CCN(C(=O)c2cc(F)ccc2F)CC1	0%
Cn1ccnc1CNC(=O)C[C@@H]1C[C@H]2O[C@H](CNCc3ccccc3OC(F)(F)F)[C@@H](O)[C@H]2O1	2%

More results follow:
mol	hNpr1 antagonist
O=C([C@H]1CCC[C@H](O)C1)N(CCC1=CCCCC1)Cc1ccccc1	1%
O=C1c2cnc(-c3ccsc3)nc2OCCN1CC1CC1	-12%[70.6 µM]
Cc1cccc(-n2nc(CC(N)=O)nc2Cn2cc(C)c(=O)[nH]c2=O)c1C	-1%
COc1cccc(CN2CCCC(Nc3cc(N)ncn3)C2)c1 (stereo unspecified)	-8%
O=C([C@@H]1C[C@H](F)CN1C(=O)c1cccc(OC(F)(F)F)c1)N1CCOCC1	1%
CCc1cc(CN2C[C@H](NC(=O)c3ncn[nH]3)C[C@H]2C(=O)NC(C)C)on1	4%
O=C1N(C2CCCCC2)C[C@H]2CN(S(=O)(=O)c3ccc(F)cc3)CCN12	-2%[70.6 µM]
O=C(NCC1CCOCC1)c1ccc(F)cc1	2%

Brought forward from above: 5 entries, then new ones.
mol	hNpr1 antagonist
COc1cccc(CN2CCCC(Nc3cc(N)ncn3)C2)c1 (stereo unspecified)	-8%
O=C([C@@H]1C[C@H](F)CN1C(=O)c1cccc(OC(F)(F)F)c1)N1CCOCC1	1%
CCc1cc(CN2C[C@H](NC(=O)c3ncn[nH]3)C[C@H]2C(=O)NC(C)C)on1	4%
O=C1N(C2CCCCC2)C[C@H]2CN(S(=O)(=O)c3ccc(F)cc3)CCN12	-2%[70.6 µM]
O=C(NCC1CCOCC1)c1ccc(F)cc1	2%
O=C1COc2ccc(-c3ccc(F)c(Cl)c3)nc2CN1Cc1nc2ccccc2s1	-10%
COc1ccccc1NC(=O)N1CC[C@H]2CC(=O)N([C@H](C(N)=O)C(C)C)CC[C@H]2C1	7%[70.6 µM]
COc1ccc(-c2noc(Nc3cc(OC)cc(OC)c3)n2)cc1	-17%
CN1C(=O)C2(CCN(C(=O)c3ccc(S(N)(=O)=O)cc3)CC2)c2ccccc21	11%
Cc1cccc(C(=O)NCc2nnc3cc(-c4nc(C5CC5)no4)ccn23)c1	2%
O=C(Cn1cccn1)NC1CC(=O)N(Cc2ccccc2C(F)(F)F)C1 (stereo unspecified)	1%
COc1ccc(C)cc1NC(=O)Cn1nc2n(c1=O)CCCCC2	-12%
Cc1noc(C)c1NC(=O)N[C@@H]1CCC[C@@H](C(=O)N2CCN(C)CC2)CC(=O)N(C)C1	4%[70.6 µM]

Going on with the list:
mol	hNpr1 antagonist
COC(=O)[C@@H](C)NC(=O)[C@H]1CN(C(=O)Nc2ccccc2)CCN1C(=O)c1cccs1	1%
COc1ccc(CNC(=O)Cn2ccn3nc4c(c3c2=O)CCCC4)cc1OC	-2%
Cc1cccc(C(=O)N2CCN(C(=O)c3nnn4c3COC(c3ccc(Cl)cc3)C4)CC2)c1 (stereo unspecified)	-14%
Cc1ccc(C(=O)NC2CCN(c3cc(-c4ccc(F)cc4)[nH]n3)C2)cc1C (stereo unspecified)	-9%
CC(C)(C)NC(=O)N1CCCC(c2nc(CCOc3ccc(F)cc3)no2)C1 (stereo unspecified)	-19%
CCN(CC)C1CCOC2(CCN(C(=O)C(C)C)CC2)C1 (stereo unspecified)	7%
COc1ccc(CC(=O)N2CC[C@H]3COC(=O)N3c3cc(F)ccc3C2)cc1	7%[70.6 µM]
Cc1ccccc1Nc1cc2c(nc1-c1ccccc1)nc(C(=O)NCCN(C)C)n2C	2%[70.6 µM]

5 successive entries already listed:
mol	hNpr1 antagonist
Cc1ccc(C(=O)NC2CCN(c3cc(-c4ccc(F)cc4)[nH]n3)C2)cc1C (stereo unspecified)	-9%
CC(C)(C)NC(=O)N1CCCC(c2nc(CCOc3ccc(F)cc3)no2)C1 (stereo unspecified)	-19%
CCN(CC)C1CCOC2(CCN(C(=O)C(C)C)CC2)C1 (stereo unspecified)	7%
COc1ccc(CC(=O)N2CC[C@H]3COC(=O)N3c3cc(F)ccc3C2)cc1	7%[70.6 µM]
Cc1ccccc1Nc1cc2c(nc1-c1ccccc1)nc(C(=O)NCCN(C)C)n2C	2%[70.6 µM]

Other entries follow:
mol	hNpr1 antagonist
CC(C)NC(=O)N1CCC[C@@H](O)[C@H](NC(=O)c2ccc(OCCN3CCCC3)cc2)C1	6%[70.6 µM]
COCc1cc(C[C@@H]2C[C@H](NC3CCOCC3)C2(C)C)no1	7%[70.6 µM]
COC[C@@H]1CN(C(=O)Cn2nc(C)cc2C)C[C@H]1c1nc(C2CC2)no1	4%
Cc1cccc(CC(=O)N2CCC3(CC2)CC(O)CCO3)c1 (stereo unspecified)	5%
O=C(NC1CCCN(c2cc(-c3ccccc3)[nH]n2)C1)c1ccccc1 (stereo unspecified)	-21%
C[S+](=O)([O-])N1CCC2(CCN(Cc3cccs3)c3ccccc3O2)CC1	0%
COc1cccc([S+](=O)([O-])N2CCCC3(C2)C(=NC2CCCC2)NC(=O)N3c2cc(F)cc(F)c2)c1 (stereo unspecified)	10%
NC(=O)CCNC(=O)C1=C[C@@H](NC(=O)Nc2cccc(F)c2)[C@@H](O)[C@H](O)C1	1%[70.6 µM]

Remaining list, next part:
mol	hNpr1 antagonist
CCCN(C)c1nccnc1OC1CCN(C(=O)C2CCC2)C1 (stereo unspecified)	-8%
CCOc1cc(=O)n2c(c1C(=O)NCCCN1CCCc3ccccc31)CCCCC2	1%
COCCC1(NC(=O)C2CCOCC2)CCN(C(=O)C2COc3ccccc3O2)CC1 (stereo unspecified)	8%
O=C1CCN(C(=O)Cc2ccccc2)CCCC(CO)CCN1 (stereo unspecified)	-3%
CCNC(=O)[C@@H]1C[C@H](N)CN1C(=O)c1c(C)nc2sccn12	4%
COCC(=O)N[C@@H]1CN(Cc2ccncc2)C[C@H]1CO	-5%
Cc1cccc(CNC(=O)c2c(C)noc2-c2ccc(C(C)(C)C)cc2)c1	0%
COc1ccc(OC)c(CN2CCc3ncc(C(=O)Nc4ccccc4)n3CC2)c1	-8%[70.6 µM]

(next part)
mol	hNpr1 antagonist
Cc1nc(-c2c3n(c(=O)n(Cc4ccc(OC(F)(F)F)cc4)c2=O)CCCC3)no1	-3%
O=C(c1ccccc1F)N1CCc2nc(C3CC3)nc(-c3ccc(O)cc3)c2CC1	-1%
COCC1CN(C(C)=O)CC12CCN(S(=O)(=O)c1cn(C)cn1)CC2 (stereo unspecified)	1%
O=C(NCc1ccc(F)cc1)NC1CCc2nnc(C3CC3)n2CC1 (stereo unspecified)	-2%
NC(=O)N1CCCC1C(=O)N1CCC(c2[nH]ncc2-c2cccc(F)c2)CC1 (stereo unspecified)	3%
CC1(C)CNC(=O)c2nc(CC3(O)CCCC3)[nH]c2C1	5%
CCc1nc2c(c(-c3ccc(O)cc3)n1)CCN(Cc1ccc(C(F)(F)F)cc1)CC2	?
COc1ccc(C(=O)N[C@H]2C[C@H]3C(=O)Nc4ccc(-c5cccs5)cc4C(=O)N3C2)cc1	-22%

Continued:
mol	hNpr1 antagonist
COc1cc(CNC(=O)CCC2CCN(S(=O)(=O)c3ccccc3)CC2)cc(OC)c1	-2%
CC(C)CCN1CCC(N2CCN(C(=O)c3cccc(Br)c3)CC2)C1=O (stereo unspecified)	-6%
COc1ccc(CN[C@H]2[C@H](O)[C@@H](N(C)CCc3ccccn3)[C@@H]3OC[C@H]2O3)cc1	-6%[70.6 µM]
O=C(c1n[nH]c2ccccc12)N1CCC2(CC1)CC(N1CCOCC1)CCO2 (stereo unspecified)	-5%
C[C@@]1(O)CCN(C(=O)c2cc(C(F)(F)F)ccc2Cl)C[C@@H]1O	11%
COc1cccc(-c2cc(C3CCN(C(=O)Nc4ccc(C)cc4C)CC3)[nH]n2)c1	-19%
COc1coc(C(=O)N2CCOCC2CC(=O)NC2CCCC2)cc1=O (stereo unspecified)	1%
Nc1nnnn1CC(=O)N1CCC2(CCC(=O)N(CC3CCCO3)C2)CC1 (stereo unspecified)	3%

Other compounds follow:
mol	hNpr1 antagonist
Cc1cccc(N2Cc3c(ncnc3NCc3ccc(C(F)(F)F)cc3)CN(C)C2=O)c1	0%
CCN1c2cc(C(=O)Nc3cccc(Cl)c3)ccc2C(=O)N2CCCCC21 (stereo unspecified)	3%
COC(=O)CNC(=O)C1CCCN1c1nc2ncccc2o1 (stereo unspecified)	11%[70.6 µM]
O=C1NCCCCCCN(C(=O)NCc2ccccc2)[C@H]2CCC[C@@H]12	-6%
c1cn(CCN2CCCC2)c(-c2cc3n(n2)CCNC3)n1	4%
Cc1cnc(CN2CC3(CCCN(C(=O)c4cscn4)C3)CCC2=O)cn1 (stereo unspecified)	3%
COc1ccc(C[C@H](NC(=O)[C@@]2(O)C[C@@H](O)[C@H](O)[C@@H](NC(=O)Cc3cccs3)C2)C(N)=O)cc1	0%
O=C(NC1CCN(c2cc(-c3ccc(F)cc3)[nH]n2)C1)c1ccccc1Br (stereo unspecified)	-28%

More records follow.
mol	hNpr1 antagonist
O=C(c1ccccc1)N1CCC2(CC1)C(=O)NN=C2C1CC1	-2%[70.6 µM]
CC[C@@H](NC(C)=O)c1nc(-c2cccnn2)no1	11%
CCOc1ccc(NC(=O)c2ccc3c(c2)N(C)C2CCCN2C3=O)cc1 (stereo unspecified)	2%
CC(C)(CC(=O)O)CC(=O)N[C@H]1CO[C@H]2[C@@H]1OC[C@@H]2n1nnnc1-c1ccccc1	2%[70.6 µM]
O=C(NCCCc1ccccc1)C1CCN(c2cc(C(F)(F)F)ncn2)CC1	11µM*
NC(=O)[C@@H]1C[C@H](Oc2cccnc2)CN1C(=O)CC1CCCCC1	4%
COc1ccc(C(=O)N2CCC(N3CC4CC(C3)[C@H]3CCCC(=O)N3C4)CC2)c(OC)n1 (stereo partly specified)	2%
CN1c2cc(C(=O)NCc3cccc(Cl)c3)ccc2C(=O)N2CCCC21 (stereo unspecified)	0%

Next part.
mol	hNpr1 antagonist
Cc1ccc(NC(=O)N2Cc3[nH]cnc3C[C@H]2c2nc(C(C)C)no2)cc1	6%[70.6 µM]
COc1ccccc1OC1(C(=O)O)CCN(C(=O)c2ccoc2C)CC1	15%
COc1ccc(-c2nc(C3CC3)nc3c2CCN(CC2CCCCC2)CC3)cc1	-6%
OC[C@H]1CN(Cc2ccc(-n3ccnc3)cc2)C[C@H]1CN1CCCCC1	5%
COc1ccc(C(=O)Nc2ccc3c(c2)CN(Cc2cc(F)cc(F)c2)C(=O)C(C)O3)cc1 (stereo unspecified)	-22%
Cc1cc(N2CCC(c3nccn3Cc3ccccn3)CC2)nc2ccccc12	-5%
CN1c2cc(C(=O)Nc3ccccc3)ccc2C(=O)N2CCCCC21 (stereo unspecified)	-20%
CN(C)c1cc(=O)c2ccnc(-c3ccccc3Oc3ccccc3)c2o1	1%[70.6 µM]

(more compounds)
mol	hNpr1 antagonist
O=c1n(-c2ccc(F)cc2F)nc2n1CCN(Cc1cccc3ccccc13)C2	10%
COc1cc(=O)n2c(c1C(=O)NC1CCCCCCC1)CCCC2	-1%
O=C1NC(=NC2CCCC2)C2(CCN([S+](=O)([O-])c3cccc(C(F)(F)F)c3)CC2)N1c1cc(F)cc(F)c1	-1%
CN(C)C[C@@H]1CN(c2ccccn2)C[C@H]1NC(=O)c1cnco1	-1%
O=C(NCCc1ccccc1)c1ccc2c(c1)OCCN(CCC(F)(F)F)C2	-21%[70.6 µM]
COc1ccc(-c2nnc(C[C@@H]3C[C@@H](C(C)C)[C@H](CN(C)CCC#N)C=C3C)o2)cc1	?
O=C(NCC(F)F)C1CN(c2ccc(F)cc2)C(=O)N1 (stereo unspecified)	22%[70.6 µM]
COCCN(C)C[C@@H]1CN(C(=O)c2cnc(SC)nc2)C[C@@H]1CO	8%

Some of the compounds tested; rates above refer to the full screens.
